CDC25B-CDK2 inh: human CDC25B-CDK2/CyclinA binding inhibition. P30305+P24941. HTRF CDC25B-CDK2/CyclinA binding, anti-His/anti-Flag; hits give high values. z-score (no concentration beside the values). 94,000 compounds, 0.72% hits;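 also: score is relative to mean and SD of negative controls; strong numbers were not always called active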
TAR Tat displ: HIV-1 TAR-Tat binding disruption. HIV-1 TAR RNA, Tat peptide displacement FRET; hits give high values. z-score (test concentration not listed). 100,000 compounds, 0.6% hits;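 also: score is relative to mean and SD of negative controls; some compounds called inactive have numbers as strong as hits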
Active calls of the source: *; nt = no result given.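 The calls were made as follows: active = z-score from 3 up in half or more of its runs; inactive = the rest.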

canonical_smiles | TAR Tat displ | CDC25B-CDK2 inh
O=C(Nc1ccc(SCc2nc3ccccc3[nH]c2=O)cc1)C1CCCCC1 | -2.01 | nt
CCn1cc(NC(=O)NC2CCc3ccccc32)c(=O)c2ccc(C)nc21 (configuration not stated) | -1.12 | -1.06
Cc1ccc(Nc2nc(NCC3CCCO3)nc(N)c2[N+](=O)[O-])cc1 (configuration not stated) | -0.81 | nt
Oc1c(Cl)cc(Cl)cc1/C=N/NC(=S)NC1CC2CCC1C2 (configuration not stated) | nt | -2.97
Cc1ccc(N2C(=O)c3[nH]nc(-c4ccc(Br)cc4)c3C2c2cccnc2)cc1 (configuration not stated) | -0.34 | nt
Cc1[nH]c2ccccc2c1C(=O)CCC(=O)O | 1.08 | -0.09
CN1C(=O)C2CCCCN2c2ccc(C(=O)N3CCN(c4ncccn4)CC3)cc21 (configuration not stated) | 1.69 | nt
COC(=O)c1ccc(C2c3c(oc4ccc(Cl)cc4c3=O)C(=O)N2CCCN(C)C)cc1 (configuration not stated) | 0.46 | -1.4
CCN(CC)S(=O)(=O)c1ccc(Nc2nc3ccc(Cl)cc3n3cnnc23)cc1 | 0.78 | -0.04
CC(C)CCN(C(C)c1ccco1)S(=O)(=O)c1ccc2c(c1)NC(=O)CS2 (configuration not stated) | 2.7 | nt
CC(C)OC(=O)c1ccc(COC(=O)CCc2nc3ccccc3[nH]c2=O)cc1 | 1.74 | -0.23
O=C(O)CN(CCN(CC(=O)O)CC(=O)O)CCN(CC(=O)O)CC(=O)O | nt | -5.16
COc1cc(OC)c(NC(=O)C2=Cc3cc(Br)ccc3OC2)cc1Cl | 1.21 | nt
COCCn1cc2c(c1-c1ccccc1)c(=O)n(C)c(=O)n2C | 1.23 | -1.8
O=C(COc1ccc(F)cc1)Nc1nnc(S(=O)(=O)N2CCc3ccccc32)s1 | 1.53 | -1.89
O=C(NC1CC1)c1ccc(NC2=NC3CS(=O)(=O)CC3S2)cc1 (configuration not stated) | 5.33 | nt
N#Cc1nc(-c2ccc(S(=O)(=O)N3CCc4ccccc4C3)cc2)oc1NCCCn1ccnc1 | 2.69 | 10.7*
Cc1c(NC(=O)CCCc2nc(-c3ccco3)no2)c(=O)n(-c2ccccc2)n1C | 1.29 | -1.61
Cc1cc(C(F)(F)F)n2nc(-c3ccc(Cl)cc3)cc2n1 | -0.58 | 0.94
CC(C)(C)NC(=S)N/N=C/c1c(Br)cnn1Cc1ccc(Cl)cc1 | nt | -0.65
Cc1cc(NS(=O)(=O)c2ccc(Nc3nc(-c4ccc(Cl)cc4)cs3)cc2)no1 | -0.43 | -0.74
C=CCSc1nnc(-c2cccnc2)n1Cc1ccccc1 | -1.24 | -0.25
Cc1cc(N2CCc3ccccc32)n2nc(-c3ccco3)nc2n1 | 2.11 | nt
Cc1cc(C2CCCN2C(=O)c2cc(C3CC3)on2)no1 (configuration not stated) | 1.96 | nt
COc1cc(OC)c(NC(=O)Nc2nc3ccccc3s2)cc1Cl | 1.24 | -2.46
CCCc1cc(=O)n2[nH]c(NCc3ccc(SC)cc3)nc2n1 | 1.4 | -1.84
CCOC(=O)c1sc(NC(=O)c2snnc2C)c(C(=O)OCC)c1C | 1.58 | -1.97
CSc1ccc(CNC(=O)c2ccc3c(c2)nc2n3CCCCC2)cc1 | 1.27 | nt
Cc1ccc2c(c1)c1nc3ccccc3nc1n2CC(=O)O | -0.26 | 0.12
CC(C)Cn1cc(NC(=O)N(CCN2CCCC2)C2CCN(C)CC2)c2ccccc2c1=O | -0.14 | nt
c1ccc2c(c1)c1ccccc1c1nc(N3CCCCC3)nnc21 | nt | -0.87
C#CCSc1nnnn1-c1ccc(OCC)cc1 | nt | -0.52
CCC(=O)c1ccc(NC(C)=O)cc1O | nt | -1.95
CN1CCN(C(=O)CN2CCSc3ccc(S(=O)(=O)N(C)C)cc32)CC1 | 1.31 | nt
C=CCN1C(=O)c2[nH]nc(-c3ccccc3O)c2C1c1ccc(O)cc1 (configuration not stated) | 2.59 | 0.43
CCC(Sc1nncn2c1cc1oc(C)cc12)C(=O)Nc1ccc(F)cc1 (configuration not stated) | 0.26 | nt
Cc1ccc(C)c(S(=O)(=O)NCC(c2ccc(N(C)C)cc2)N(C)C)c1 (configuration not stated) | 1 | nt
CC(C)Cc1nn2c(=O)cc(CSc3nc4ccc(NC(=O)c5ccco5)cc4s3)nc2s1 | 0.75 | nt
Cc1nnc2c(N3CCCC3)nc3ccccc3n12 | 1.87 | 0.76
O=C1CC(c2ccccc2)C2=C(COC2=O)N1 (configuration not stated) | nt | -1.17
Fc1ccccc1-c1noc(Nc2ccccc2)n1 | 1.66 | nt
CNC(=O)C1=Cc2sc3c(c2CS1)CCCC3 | -0.32 | nt
CCOC(=O)N1CCN(/[N+]([O-])=N/Oc2cc([N+](=O)[O-])ccc2[N+](=O)[O-])CC1 | -2.2 | nt
Cc1oc2ncnc(N3CCCCC3)c2c1C(=O)NC1CCCC1 | 1.06 | nt
CN(C)/C=N/NC(=O)c1cc(Cl)c(OCc2ccc(F)cc2)c(Cl)c1 | nt | -0.44
S=C1NCN(CCc2ccccn2)CN1 | nt | -2.1
O=C(c1ccccc1)c1cc2c(cc1Br)OCCO2 | nt | 2.08
Cc1nn(CCCC(=O)NCCC2=CCCCC2)c(=O)c2cc3sccc3n12 | 1.33 | -2.17
CN(C)/C=C1\Cc2ccccc2C1=O | nt | -0.27
CCOCCCNc1cc(N(C)C)c2noc3c2c1C(=O)c1ccccc1-3 | 2.5 | -1.46
CN(CCc1ccccn1)Cc1ccccn1 | 0.39 | 2.37
Cc1cccc(SCc2cc(=O)n3cc(C)sc3n2)c1 | 1.18 | nt
COCCOC(=O)c1c(C)oc2ccc(NS(=O)(=O)c3cc(OC)ccc3OC)cc12 | 1.24 | -0.11
CC(C)(O)C#Cc1ccc(C(=O)NCc2ccc3c(c2)OCO3)cc1 | nt | 0.06
CSc1cccc(Nc2c(-c3ccc(C)c(C)c3)c(=O)c2=O)c1 | 2.11 | nt
O=c1nc(SCc2ccc(Cl)cc2)c2c(n1C1CCCC1)CCC2 | 1.05 | -1.5
Cc1nn(CCCC(=O)Nc2ccc3c(c2)OCO3)c(=O)c2c1sc1ccccc12 | 1.96 | -3.59
CCc1nn(CCCC(=O)NC(C)CCc2ccccc2)c(=O)c2cc3occc3n12 (configuration not stated) | -0.4 | -1.57
Cc1cccc(OCc2ccc(-c3nc(C#N)c(N4CCOCC4)o3)o2)c1 | -0.04 | -1.14
Cc1ccc(CNC(=O)NC(C)c2c(-n3cccc3)sc3c2CCN(C)C3)cc1 (configuration not stated) | -7.44 | nt

Next results
canonical_smiles | TAR Tat displ | CDC25B-CDK2 inh
O=C(NC1CC1)C1CCN(c2ccc3cc(S(=O)(=O)N4CCCCC4)ccc3n2)CC1 | 0.74 | nt
CC(C)=CCn1c(N2CCCCC2)nc2c1c(=O)[nH]c(=O)n2C | 1.55 | -0.82
COc1ccc(CNCc2ccc(SC)cc2)cc1 | 1.38 | 0.06
O=C1NC2(CCCC2)N=C1c1ccccc1 | nt | -0.49
CC(C)(C)Cc1nc2ccccc2n1Cc1ccccc1 | 1.35 | -1.36
CCCn1c(SCCO)nc2c(c1=O)C1(CCCCC1)Cc1ccccc1-2 | 1.32 | 1.38
COc1ccc(OC)c(C2CC(=O)C3=C(C2)NC(=O)CC3c2ccc(O)c(OC)c2)c1 (configuration not stated) | 2.11 | -1.48
CCCn1c(SCc2nc(-c3cccs3)no2)nnc1-c1ccccc1 | 0.87 | -1.95
CCc1nn(CC(=O)NC2CCCC(C)C2C)c(=O)c2cc3sccc3n12 (configuration not stated) | -0.18 | -0.87
CC(=O)N1CCSc2ccc(S(=O)(=O)N3CCOCC3)cc21 | 2.1 | nt
COc1ccc2c(c1)NC1(CCN(S(=O)(=O)c3ccc4c(c3)oc(=O)n4C)CC1)c1cccn1-2 | 0.11 | nt
CSC(=NCc1ccccn1)NC#N | nt | -2.99
Cc1ccc(S(=O)(=O)c2cn(C)c3cc(N4CCCCC4)c(F)cc3c2=O)c(C)c1 | -1.32 | nt
OC(CNc1ccc(F)c(Cl)c1)Cn1nnnc1-c1ccccc1 (configuration not stated) | -0.34 | -1.89
CCc1ccc(S(=O)(=O)c2nnn3c2nc(NCc2ccco2)c2sccc23)cc1 | 0.07 | nt
COC(=O)c1ccc2c(c1)N(Cc1nc(-c3ccc(Cl)cc3)oc1C)C(=O)C1CCCN21 (configuration not stated) | nt | -5.43
Cc1ccc(S(=O)(=O)n2c(N)nc3ccccc32)cc1 | nt | -0.86
Cn1c(C(=O)N2CCCc3ccccc32)cc2c(=O)n3ccccc3nc21 | 1.53 | nt
NC(=O)c1c(NC(=O)CSc2nc(-c3ccco3)cc(C(F)(F)F)n2)sc2c1CCC2 | nt | 1.23
O=C1Cc2cc(S(=O)(=O)NCCCc3ccccc3)cc3c2N1CCC3 | 1.69 | nt
CC1(C)C(=O)OC2(c3ccc(Br)cc3)C1OC(=O)C2(C)C (configuration not stated) | nt | -1.9
CCCS(=O)(=O)c1nc(S(=O)(=O)c2ccc(C)cc2)c(N2CCN(CCO)CC2)s1 | -1.31 | -0.99
O=C(NCC1COc2ccccc2O1)C1CCCN(S(=O)(=O)c2cccc3cccnc23)C1 (configuration not stated) | nt | -0.13
Cc1ccc(C)c(CNC(=O)c2cnc3scc(C)n3c2=O)c1 | 0.04 | nt
c1cnc(N2CCN(c3nn4nnnc4c4ccccc34)CC2)nc1 | 1.45 | -1.21
O=C(c1cc(=O)c2cc(Cl)ccc2o1)N(Cc1cccs1)C1CCS(=O)(=O)C1 (configuration not stated) | -0.06 | -0.48
Cc1oc2c(C)c3oc(=O)c(C)c(C)c3cc2c1C | nt | -0.27
CCOC(=O)c1c(S(=O)(=O)NCC(=O)Nc2nc(C)cs2)c(C)n(C)c1C | 0.9 | nt
O=c1[nH]nc(-c2ccc(Br)cc2)nc1Cc1ccc2c(c1)OCO2 | 1.19 | nt
Cc1ccccc1CSc1nc2c(c(=O)[nH]1)CCCC2 | -1.04 | -2.51

Reprinted from the part before: 3 compounds, followed by the next part.
canonical_smiles | TAR Tat displ | CDC25B-CDK2 inh
CCOC(=O)c1c(S(=O)(=O)NCC(=O)Nc2nc(C)cs2)c(C)n(C)c1C | 0.9 | nt
O=c1[nH]nc(-c2ccc(Br)cc2)nc1Cc1ccc2c(c1)OCO2 | 1.19 | nt
Cc1ccccc1CSc1nc2c(c(=O)[nH]1)CCCC2 | -1.04 | -2.51
CCN1CCN(CCNC(=O)c2cnc3sc(N4CCOCC4)nn3c2=O)CC1 | 0.21 | nt
Cc1cc(Nc2ccccc2)nc(N2CCN(C(=O)Nc3cccc(Cl)c3)CC2)n1 | -0.21 | nt
Cc1nn2c(=O)cc(CSc3nnc(NC(=O)C(C)C)s3)nc2s1 | 0.62 | nt
CC1CN(C(=O)c2cc3n(n2)C(C(F)(F)F)CC(c2ccco2)N3)CC(C)O1 (configuration not stated) | 0.19 | -0.69
N#CC1=C2SCN(Cc3ccco3)CN2C(=O)CC1c1ccc(OCc2ccc(Cl)cc2)cc1 (configuration not stated) | -1.57 | -0.73
S=c1[nH]nc(-c2ccccc2)o1 | nt | -1.67
CC(=O)N1CCOc2cc(S(=O)(=O)NC3CCC(C)CC3)c(C)cc21 (configuration not stated) | 2.58 | nt
c1ccc(CNc2cc(-c3ccccc3)[nH]n2)cc1 | 1.43 | -0.74
CCCCCN1C(C(=O)c2ccccc2)=C(OC(=O)c2ccco2)c2ccccc2S1(=O)=O | 1.36 | 1.78
COc1cnc(CSc2ncccn2)cc1OCC(=O)NC(C)C | 0.77 | nt
CC1Sc2ccc(S(=O)(=O)CCC(=O)N3CCN(C4CCCCC4)CC3)cc2NC1=O (configuration not stated) | 1.31 | nt
CN(C)CCN(Cc1ccco1)C(=O)c1cc2c(s1)-c1ccccc1OC2 | -0.65 | -1.02
CCC(C)NC(=O)C1=CC(c2ccc3c(c2)OCO3)=NS(=O)(=O)N1C (configuration not stated) | 2.77 | -2.5
O=C1c2ccccc2C(Nc2ccc(Cl)cn2)N1c1cccnc1 (configuration not stated) | 0.07 | -1.23
Cc1csc2nc(CNS(=O)(=O)c3ccc(Oc4ccccc4)cc3)cn12 | 1.37 | 3.51
CCOC(=O)C1=C(C)Nc2nc(SCC)nn2C1c1ccc(Br)cc1 (configuration not stated) | 0.6 | -1.03
Cc1onc(-c2c(F)cccc2Cl)c1C(=O)N1CCCN(c2ccc(C(F)(F)F)cn2)CC1 | nt | -0.41
CC(C)N1CNc2c(c(=O)n(C)c(=O)n2C)C1 | nt | -0.79
CCCSc1ncc(Cl)c(C(=O)Nc2sc3c(c2C(N)=O)CCCC3)n1 | -4.58 | -0.81
CCCSc1nnc(NC(=O)c2cc(=O)c3ccc(C)c(C)c3o2)s1 | 2.03 | -0.34
Nc1cc(=O)nc(SCC(=O)Nc2ccc(F)cc2)n1-c1ccc(Cl)cc1 | -1.11 | -1.54
CCOC(=O)c1c(C)oc2nc(C)nc(Nc3cc(C)cc(C)c3)c12 | -0.68 | nt
COc1cccc(-c2cc(C(F)(F)F)n3nc(N)nc3n2)c1 | 0.38 | -1.37
O=C(CSc1ncccn1)N1CCc2ccccc2C1 | -0.17 | -0.86
Cc1cccc(NC(=S)Nc2ccc(C)c(NS(C)(=O)=O)c2)c1 | nt | -1.35
Cn1c(SCC(=O)Nc2cccc(Cl)c2)nc2c(oc3ccccc32)c1=O | -0.17 | -1.94
Cc1ccnc2nc(NC(=O)CC(C)C)nn12 | 1.98 | -2.34
CCC1CN(C(=O)Nc2ccc(F)cc2)c2ccccc2S1 (configuration not stated) | 2.11 | nt

Single records, as listed above. Order of screens: TAR Tat displ	CDC25B-CDK2 inh
CC(C)N1CNc2c(c(=O)n(C)c(=O)n2C)C1 across the screens: nt	-0.79
CC1CN(C(=O)c2cc3n(n2)C(C(F)(F)F)CC(c2ccco2)N3)CC(C)O1 (configuration not stated) across the screens: 0.19	-0.69

Bioassay records from PubChem.
